Bioassay records as filed in PubChem.
Autofluor counter: flagged as autofluorescent in microsphere protease counterscreen. compound autofluorescence counterscreen, microsphere flow cytometry; hits give high values. fluorescence intensity (test concentration not listed). actives 3.1% (n = 360,000). AID 624483;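 active means at least 3 SD above the mean of all compounds, about 16000 in these data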;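 further: 100 nL of 1 mM stock went into each well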
RN4220 kill: kills Staphylococcus aureus RN4220; inhibition, % (concentration not given with the values); AID 1259311; actives 0.33% (n = 330,000); S. aureus RN4220 growth, OD600, 16 h;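 active means z-score of -3 or lower and OD600 up to 0.18 on both plates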;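 further: plate controls were untreated cells for no effect and reference antibiotic for full effect; stock transfer was 100 nL into about 80 µL; one replicate is shown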
BJeLR viability: kills HRASV12-expressing BJeLR cells; actives 0.17% (n = 300,000); inhibition, % (test concentration not listed); BJeLR (HRASV12) viability, CellTiter-Glo ATP luminescence, 48 h; reference of the scale not given here;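 active means replicate mean above 50%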;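 further: 50 nL library stock added to about 25 µL; numbers are from one replicate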
PrP 5UTR inh: inhibition of PrP 5' UTR reporter expression | cell-based PrP 5' UTR mRNA reporter, plate reader | inhibition, % (test concentration not listed) | actives 0.35% (n = 340,000);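 active means every replicate at 50% or more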;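 further: 0 = median of the neutral control wells; tested in H4 reporter cells; numbers are from one replicate; inactives centre near -14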
Mtb hypoxia rep: inhibitors of hypoxia-regulated fluorescent reporter in Mycobacterium tuberculosis | fluorescence inhibition, % (no concentration beside the values) | M. tuberculosis hypoxia-regulated fluorescent reporter, fluorescence | actives 0.1% (n = 300,000);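 active means 35 to 45% if threefold the growth effect, above 45% if 1.5-fold the growth effect; inactive means the rest, general growth blockers included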;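 further: wells of about 50 µL received 100 nL stock; 0% = vehicle wells and 100% = reference inhibitor wells; whole bacteria with a GFP reporter of the hypoxia response; strong numbers were not always called active; many hits fall short of the cut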
ugtP null kill: growth inhibition of S. aureus ugtP deletion strain; S. aureus RN4220 ugtP deletion, OD600 growth, 16 h; some inactives read as strong as hits; growth inhibition, % (test concentration not listed); actives 0.54% (n = 330,000); AID 1259309;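 active means z-score under -3 and OD600 up to 0.15 on both plates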;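 further: plate controls were untreated wells for no effect and antibiotic for full effect; wells of about 80 µL received 100 nL stock; the first replicate is given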
Mtb hypoxia rep growth: further read-out of Mtb hypoxia rep, marked with its call; growth inhibition, %; measured here: M. tuberculosis growth (absorbance);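 0% = vehicle and 100% = reference antibiotic; read after six days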
An asterisk follows results filed as active; . = not tested or not shown.

SMILES | Autofluor counter | RN4220 kill | BJeLR viability | PrP 5UTR inh | Mtb hypoxia rep | Mtb hypoxia rep growth | ugtP null kill
CC1(C)CC(=O)C2=C(C1)N(CCN1CCOCC1)C1=C(C(=O)CC(C)(C)C1)C2c1cccc(Cl)c1 | 3477 | -4.6 | 0 | -11 | . | . | 4
COCC(=O)NCCc1nc(-c2ccccc2)cs1 | 4729 | -2.8 | -3 | -22 | . | . | -1
COc1ccc(NC(=S)N2CCC(C(=O)c3ccc(F)cc3)CC2)cc1 | 3981 | 0.0 | . | -3 | 1 | 14 | -4
O=c1[nH]c2ccccc2n1CCCSc1cnc2ccccc2n1 | 2963 | 1.5 | 7 | 11 | 6 | 9 | -16
O=C(COC(=O)c1ccccc1Br)Nc1nnc(-c2ccccc2)o1 | 6700 | 13 | 8 | 8 | 6 | -7 | -7
Clc1ccc(CNc2ccccc2NCc2ccc(Cl)nc2)cn1 | 4413 | 5.3 | -3 | -16 | 8 | 8 | 0
CCOC(=O)N1CCC(NC(=O)c2cc(COc3ccccc3SC)on2)CC1 | 5790 | 0.8 | 3 | -18 | -1 | -4 | -5
CCC1CCCCN1C(=O)Nc1ccc(F)cc1 (configuration not stated) | 15603 | 3.7 | -9 | -11 | 1 | -4 | 12
CCS(=O)(=O)N1Cc2ccccc2CC1C(=O)Nc1ccc(F)c(F)c1F (configuration not stated) | 3012 | 0.6 | -6 | -21 | 12 | 9 | 9
COCCCNC(=S)NNC(=S)Nc1ccccc1 | 5310 | . | -9 | -26 | . | . | .
CC(C)(C)C(=O)Nc1ccc(S(=O)(=O)N2CCC(c3nc4ccccc4[nH]3)CC2)cc1 | . | -2.5 | 1 | -13 | 1 | -1 | -4
N=c1sccn1CC(=O)Nc1ccccc1-c1ccccc1 | 2561 | 6.6 | 1 | -1 | 9 | 0 | 6
O=C(O)c1ccccc1-c1ccc(/C=c2\sc3nc4cc(Br)cnc4n3c2=O)o1 | 5561 | . | -9 | -14 | . | . | .
CCCc1nc(N)c(C#N)c(-c2ccco2)c1CC | 10826 | 4.7 | 8 | -15 | 8 | 11 | 0
CCOC(=O)C1CCN(C(=O)c2ccc3c(Cl)c4c(nc3c2)CCCC4)CC1 | 6237 | 0.9 | -2 | -16 | -3 | 2 | -3
COc1ccc(C(=O)NCc2cnn(C)c2)cc1OC1CCN(C(C)C)CC1 | 4576 | 4.7 | -2 | 3 | 5 | 5 | 7
NC(=O)CC(NC(=O)Cc1ccc(Cl)cc1)c1ccc(NC2CCCCCCC2)c([N+](=O)[O-])c1 (configuration not stated) | 4074 | 1.3 | 0 | -14 | 16 | 13 | 0
COc1ccc(NC(C)=O)cc1S(=O)(=O)N1CCN(C(=O)c2ccccc2F)CC1 | 3938 | 3.9 | -4 | -6 | 12 | 6 | -1
O=C(NCCCn1ccnc1)c1cc2ccccc2o1 | 4847 | 1.1 | -3 | -18 | -1 | 4 | -4
COC(=O)c1cc(NC(=O)c2c(Cl)nc3sccn23)cc(C(=O)OC)c1 | 3084 | 9.3 | 16 | -2 | 7 | 3 | -2
CCOC(=O)C(C)n1nc(/C=C/c2ccc(OC)cc2)ccc1=O (configuration not stated) | 2703 | 3.3 | 4 | -26 | 5 | 8 | 30
CCN(CC)C(=O)c1cc2c(=O)oc3ccccc3c2s1 | 11101 | 2.3 | -26 | -15 | -8 | 0 | -9
CN1CCN(CC(=O)NC(=O)NC2CCCCC2)CC1 | 3913 | -1.0 | . | -15 | -1 | 2 | -2
Brc1ccc(CSc2nnc(-c3ccco3)o2)cc1 | 2433 | 11 | 3 | -20 | . | . | 8
O=C1C2C3C=CC(C4CC34)C2C(=O)N1N=Cc1ccc([N+](=O)[O-])o1 (configuration not stated) | . | -10 | . | . | -4 | -3 | -8
Cc1ccc(S(=O)(=O)Nc2nncs2)cc1 | 4026 | 3.5 | 4 | -77 | 1 | -6 | 2
O=C(NCC1(c2ccccc2)CCCC1)c1cccc(Br)c1 | 2691 | 9.8 | 4 | 11 | . | . | -8
O=C(COC(=O)CNC(=O)c1ccc(Cl)cc1)Nc1cccc(S(=O)(=O)N2CCCC2)c1 | 4516 | 5.1 | 6 | -6 | -10 | -7 | -8
CC(=O)c1sc(NC(=O)c2ccc(C)c(C)c2)nc1C | 4400 | 2.6 | -6 | -85 | 13 | -1 | 6
O=C(Nc1cc(N2CCOCC2)ncn1)Nc1cccc2ccccc12 | 6448 | -1.8 | -6 | -5 | 0 | -8 | -27
CC(C)(C)C(=O)/C=C(N)/C=C/c1ccccc1 | 5158 | 13 | 4 | -48 | 7 | 16 | 4
COCCn1c(NC(=S)NC(=O)C2CC2)cc(=O)[nH]c1=O | 4928 | 1.1 | -12 | -6 | 1 | 12 | 1
CSCC(C)N1CCC(n2nccc2NC(=O)c2ccc3c(c2)OCO3)CC1 (configuration not stated) | 4424 | 1.2 | 2 | -6 | 8 | 9 | 1
CN1CCN(C(=O)CN(c2ccccc2)S(=O)(=O)N(C)C)CC1 | . | 4.3 | -5 | . | 3 | -6 | 1
CCN(CC)c1ccc(NC(=O)CCN2C(=O)c3ccccc3S2(=O)=O)c(C)c1 | 6104 | 1.4 | -6 | -23 | 3 | -7 | 0
COc1ccccc1OCCn1c(CO)nc2ccccc21 | 13976 | 5.5 | -1 | -20 | 11 | 6 | -5
C/C(=N\Nc1cccc2ccccc12)c1c(O)n(Cc2ccccc2)c(=O)[nH]c1=O | 2447 | 4.3 | -15 | -5 | 1 | -1 | -7
O=C1CSC(=NN=Cc2ccco2)N1c1ccccc1 | . | 1.7 | . | . | 6 | 4 | -4
COC(=O)Cn1c(CN(C)Cc2ccccc2)nc2c1c(=O)n(C)c(=O)n2C | 3562 | 0.6 | -8 | -9 | 6 | 23 | -1
CC(=NNc1ccc(Cl)c(C(=O)O)c1)c1cc2ccccc2o1 | . | -1.5 | . | . | 0 | -16 | 9
CCSc1nnc(-c2cc3c(s2)-c2ccccc2CC3)o1 | 2665 | 9.5 | 0 | -49 | . | . | 7
C/C(CC(=O)Nc1ccc2c(c1)OCO2)=N\NC(=O)c1ccc(N)cc1 | 5110 | . | -7 | -22 | . | . | .
O=C(COc1ccc(S(=O)(=O)N2CCOCC2)cc1)N1CCc2ccccc2C1 | 3242 | 4.5 | 0 | -13 | 9 | 3 | -3
O=C(NCCCN1CCOCC1)c1cc(-c2ccc(Cl)cc2)on1 | 10852 | 2.6 | 0 | -13 | 6 | 7 | 3
CC(=O)N(/N=C/c1ccc([N+](=O)[O-])o1)c1nc2ccccc2c(=O)n1-c1ccccc1 | 6199 | . | 1 | -20 | . | . | .

Of the compounds above, these contain a tert-butyl group:
SMILES | Autofluor counter | RN4220 kill | BJeLR viability | PrP 5UTR inh | Mtb hypoxia rep | Mtb hypoxia rep growth | ugtP null kill
CC(C)(C)C(=O)Nc1ccc(S(=O)(=O)N2CCC(c3nc4ccccc4[nH]3)CC2)cc1 | . | -2.5 | 1 | -13 | 1 | -1 | -4
CC(C)(C)C(=O)/C=C(N)/C=C/c1ccccc1 | 5158 | 13 | 4 | -48 | 7 | 16 | 4

Remaining list, next part.
SMILES | Autofluor counter | RN4220 kill | BJeLR viability | PrP 5UTR inh | Mtb hypoxia rep | Mtb hypoxia rep growth | ugtP null kill
Cc1cccc(N2CC(C(=O)Nc3nnc(SCC(=O)Nc4cc(C)on4)s3)CC2=O)c1 (configuration not stated) | 2626 | 8.3 | -9 | -5 | 3 | 0 | -6
COC(=O)CNC(=O)c1cn(-c2ccc(C)c(C)c2)c(=O)c2ccccc12 | 3728 | 2.1 | 9 | -1 | 12 | 1 | 1
CCN(CC)CCNC(=O)C(=O)NCC1OCCN1S(=O)(=O)c1ccc(Cl)cc1 (configuration not stated) | 6567 | -1.2 | 8 | 3 | -1 | -6 | 4
Cc1cc(C)c2c(n1)SCC(=O)N2CC(=O)NCCC1=CCCCC1 | 5727 | -0.7 | -1 | -14 | . | . | 7
COc1ccccc1OCC(=O)Nc1nonc1NC(=O)COc1ccccc1OC | 2583 | 14 | 7 | -16 | 10 | 9 | -4
O=C1CSC(=Nc2cc(Cl)ccc2Cl)N1 | 22505* | 5.1 | -3 | -23 | 8 | 18 | -7
Cc1cc(=O)oc2cc(OCC(=O)NCCCN3CCOCC3)c(Cl)cc12 | 5612 | 2.4 | -3 | -2 | 1 | 0 | 4
Cc1ccc(NC(=S)N2CCC(N(C)CC3CCCO3)CC2)c(C)c1 (configuration not stated) | 19642* | 0.7 | 0 | -24 | 0 | 1 | -3
CCCOc1ccc(C(CC(=O)O)NC(=O)Cc2ccccc2)cc1 (configuration not stated) | 3865 | 4.3 | 4 | -10 | 8 | -3 | 8
Cc1cc(=O)n2[nH]c(SCc3c(F)cccc3Cl)nc2n1 | 3580 | 3.9 | 10 | -7 | -1 | 0 | 5
O=[N+]([O-])c1ccc(NC(=S)N/C(=N/CS(=O)(=O)c2ccccc2)c2ccccc2)cc1 | 2752 | . | -6 | -10 | . | . | .
CCn1c(CCNC(=O)c2ccco2)nc2ccccc21 | 3590 | -0.8 | -7 | -27 | 6 | 7 | 15
COc1ccc(C(=O)NCc2nnc(SCC(=O)Nc3ccccc3OC)o2)cc1 | 5335 | 2.2 | -13 | 2 | 3 | -5 | 9
CCN=c1sc2ccccc2n1CC(O)COc1ccccc1 (configuration not stated) | 2339 | 3.2 | 2 | -1 | . | . | 11
CCCn1c(NC(=O)CN2C(=O)NC3(CCCC3)C2=O)nc2ccccc21 | 5479 | 1.5 | -7 | -11 | -6 | 2 | -4
COc1ccc(C(CNC(=O)c2ccc(Cl)c(S(=O)(=O)N3CCCC3)c2)N2CCCC2)cc1 (configuration not stated) | 30581* | 14 | . | -4 | 24 | 9 | 5
CSCC(C)N1CCC(Oc2cccc(C(=O)NCc3ccccn3)c2)CC1 (configuration not stated) | 6283 | 0.0 | 4 | -38 | 13 | 12 | 3
CCOC(=O)C1CCN(Cc2ccc(F)c(F)c2)CC1 | 9144 | 0.9 | 8 | -30 | 9 | 7 | 1
CC(Sc1nnnn1-c1cccc(F)c1)C(=O)NC1CCCC1 (configuration not stated) | 3881 | -7.5 | . | -14 | -8 | 11 | -10
COc1ccccc1CNC(=O)CCc1nc2ccccc2c(=O)[nH]1 | 3781 | -11 | -10 | -32 | 11 | 3 | 2
CN1CCN(S(=O)(=O)c2cccc(C(=O)NCCOc3ccccc3F)c2)CC1 | 5780 | 3.5 | -7 | -21 | -2 | 4 | 12
CC1CCN(S(=O)(=O)c2ccc(C(=O)N3CCOCC3)cc2)CC1 | 5522 | -0.2 | 6 | -10 | 8 | 10 | 0
COC(=O)c1ccc(CSCC(=O)Nc2cc(OC)cc(OC)c2)o1 | 3906 | 2.3 | 7 | -13 | 0 | 8 | -1
O=C(O)c1cc(-c2ccc(Cl)s2)nc2ccccc12 | 4070 | 3.9 | 9 | -25 | -6 | 2 | -1
Cc1cc(C)nc(OC(C(=O)O)C(OCCC(C)C)(c2ccccc2)c2ccccc2)n1 (configuration not stated) | 3405 | -1.7 | 5 | -9 | 1 | -19 | 28
C=CCC(=O)N1CCCC(CNC(=O)c2ccc(-c3ccccc3)cc2)C1 (configuration not stated) | 4118 | 1.9 | -11 | -21 | -2 | 5 | 17
Cc1ccc(S(=O)(=O)C2(C(=O)N3CCN(c4cc(C)ccc4C)CC3)CC2)cc1 | 5330 | 9.9 | 18 | -17 | -2 | 0 | 1
Fc1ccc(/C=N/NC(=S)Nc2cccnc2)cc1 | 5103 | . | 5 | -16 | . | . | .
O=C(NCCOc1ccccc1Cl)C(=O)Nc1ccccc1 | 2416 | 2.1 | -7 | -10 | 4 | 10 | 2
CC1Cc2ccccc2N1CC(=O)Nc1ccc(S(=O)(=O)N(C)C)cc1 (configuration not stated) | 3751 | 2.5 | 4 | -9 | 1 | 5 | 3
COc1ccc(N2CCN(C3CCCN(Cc4cccc(OC)c4)C3)CC2)cc1 (configuration not stated) | 3043 | 1.3 | -7 | 8 | -3 | -3 | 7

Part of the list above in order of length of the SMILES, lowest first:
SMILES | Autofluor counter | RN4220 kill | BJeLR viability | PrP 5UTR inh | Mtb hypoxia rep | Mtb hypoxia rep growth | ugtP null kill
CC(Sc1nnnn1-c1cccc(F)c1)C(=O)NC1CCCC1 (configuration not stated) | 3881 | -7.5 | . | -14 | -8 | 11 | -10
COc1ccccc1CNC(=O)CCc1nc2ccccc2c(=O)[nH]1 | 3781 | -11 | -10 | -32 | 11 | 3 | 2
CC1CCN(S(=O)(=O)c2ccc(C(=O)N3CCOCC3)cc2)CC1 | 5522 | -0.2 | 6 | -10 | 8 | 10 | 0
COc1ccc(C(CNC(=O)c2ccc(Cl)c(S(=O)(=O)N3CCCC3)c2)N2CCCC2)cc1 (configuration not stated) | 30581* | 14 | . | -4 | 24 | 9 | 5
